Assay outcomes as filed in PubChem BioAssay.
Rce1 inh = inhibitors of yeast Ras-converting enzyme | Q03530 | AID 2563 | yeast membranes, quenched prenylated peptide cleavage fluorescence | calls only | hit rate 0.27% among 290,000;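 active = fall in fluorescence gain of 50% or more versus controls, with final raw signal at or below 3038400; inconclusive = same 50% fall but final raw signal above 3038400; inactive = fall in fluorescence gain under 50%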;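 note: plate controls were neutral control wells for no effect and wells lacking membranes for full effect; tested at 10 µM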
Target sequence (Q03530 whole entry, looked up): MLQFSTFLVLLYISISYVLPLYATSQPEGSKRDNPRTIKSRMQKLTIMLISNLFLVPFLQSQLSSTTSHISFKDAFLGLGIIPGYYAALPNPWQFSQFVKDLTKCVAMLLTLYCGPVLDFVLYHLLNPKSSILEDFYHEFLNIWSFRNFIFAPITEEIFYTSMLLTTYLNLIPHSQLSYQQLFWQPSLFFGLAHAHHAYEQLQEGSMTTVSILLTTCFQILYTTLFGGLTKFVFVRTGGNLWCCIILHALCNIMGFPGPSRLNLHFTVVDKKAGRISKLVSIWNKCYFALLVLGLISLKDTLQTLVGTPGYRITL
MT1-MMP act inh = MT1-MMP (human) activation inhibition. P50281. HT1080 RFP-PRO-GFP cells, GFP/RFP ratio fluorescence, overnight; percent of plate control window, DMSO zero. GFP/RFP ratio change, % at 20 µM. hit rate 0.061% among 360,000. AID 651647;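 active = GFP/RFP ratio change of at least 30% with cell ATP level not reduced by more than half and red fluorescence within 50% of control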; note: strong numbers were not always called active
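Test system: HT1080 RFP-PRO-GFP cells; Benchmarks: DMSO and RFP-L50D-GFP cell wells; Timing: cells overnight before dosing, compound overnight, 37 °C, 5% CO2; Compound: one 20 µM compound dose with 1% DMSO; Read-out: GFP/RFP fluorescence ratio.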
CSC inhib = blocks cancer stem cells. AID 2717. hit rate 1.1% among 300,000. cancer stem cell-like cells viability, luminescence. inhibition, % at 7.5 µM;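 active = mean at 75% or more and at least half the replicates too; inconclusive = mean and replicates disagree; tested in HMLE shEcad cells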;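 note: 0% = median of negative and 100% = median of positive control wells; the first replicate is given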
PABP polyA inh = PABP-poly(A) binding inhibition. P11940. hit rate 1% among 290,000. inhibition, % at 35 µM. PABP-poly(A) RNA binding, fluorescence polarization. AID 2014;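 active = 50% or more with normal probe brightness, or confirmed in later tests; inconclusive = above 50% with abnormal brightness, or retests that disagree; inactive = below 50% or failed in later tests; about a fifth of its hits are not listed in these tables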;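 note: calls also rest on retests at 20 µM and on dose response follow-up; controls were probe without protein and protein plus probe with vehicle; some compounds called inactive have numbers as strong as hits; many hits fall short of the cut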
UUG fidelity = modulators of start codon recognition fidelity in yeast; S. cerevisiae UUG-firefly luciferase reporter, luminescence/redox ratio; activity score, % at 18.7 µM; hit rate 0.13% among 350,000;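 active = replicate mean at a twofold rise or more, about +100% in these data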;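 note: firefly luciferase made from a UUG start codon reports start codon fidelity; reporter light over untreated wells divided by growth signal over untreated wells; some hits fall short of that in this replicate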
eIF4H FP inh = inhibitors of RNA binding by human eIF4H; Q15056; eIF4H fluorescence polarization binding assay; inhibition, % at 35 µM; hit rate 0.94% among 290,000;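 active = 50% or more with normal probe brightness, or confirmed in later tests; inconclusive = above 50% with abnormal brightness, or retests that disagree; inactive = below 50% or failed in later tests; about a fifth of its hits are not listed in these tables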;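 note: calls also rest on retests at 20 µM and on dose response follow-up; 0% = protein and probe with vehicle and 100% = probe without protein; strong numbers were not always called active; many hits fall short of the cut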
Env fusion inh = inhibitors of HIV Env-mediated cell fusion | hit rate 1.1% among 360,000 | HeLa-JRFL Env/CEM21 cell fusion, luciferase | AID 651610 | inhibition, % at 12.3 µM;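 active = mean replicate inhibition score of at least 50 and every replicate individually at or above 50; inconclusive = only one of the two criteria met; inactive = mean below 50 and not all replicates reaching 50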;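 note: 0% = plate neutral controls and 100% = maraviroc near 300 nM; one replicate is shown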
eIF4H FP inh retest = also measured in eIF4H FP inh; calls as there; inhibition, %; compound at 20 µM; confirmation average;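 mean of two retest wells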
PABP polyA inh retest = also measured in PABP polyA inh; calls as there; inhibition, %; compound at 20 µM; confirmation repeats;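 mean of two retest wells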
MT1-MMP act inh RFP = also measured in MT1-MMP act inh; calls as there; RFP signal change, %; measured here: RFP expression control read;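 0 = vehicle wells; hits needed this value within 50% of zero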
* = called active by the depositor; i = inactive; ? = inconclusive; nt = no result given.

SMILES | Rce1 inh | MT1-MMP act inh | MT1-MMP act inh RFP | CSC inhib | PABP polyA inh | UUG fidelity | eIF4H FP inh | Env fusion inh | others
Cc1cc(C)c[n+](CC(=O)c2ccc(NC(=O)c3ccccc3)cc2)c1 | i | 5 | 3 | 13 | -2 | nt | -8 | 2
O=C(Nc1ccccc1)c1cnc2ccccc2n1 | i | -2 | 4 | -4 | -2 | nt | -1 | -108
CCc1cc(-c2ccc3c(c2)COc2c4ccccc4nn2-3)on1 | i | 4 | -7 | 6 | nt | -27 | nt | -272
COc1ccc(C(=O)Nc2ccc3nc(N4CCOCC4)sc3c2)cc1OC | nt | 3 | 1 | -15 | nt | -10 | nt | nt
O=C1C(=O)N(CCCc2ccccc2)c2ccccc21 | i | -3 | 4 | 10 | 0 | 3 | -16 | nt
C/C=C/c1ccc(OCCN2CCc3ccccc3C2)c(OC)c1 | nt | 6 | 1 | 25 | 6 | nt | 4 | -2
C/C(=N\Nc1ccccc1C(=O)O)c1ccncc1 | i | -6 | -5 | -12 | 1 | -23 | -10 | -40
N#CCC(=O)N1CCCCCC1 | i | -1 | 4 | nt | 3 | -10 | -9 | -3
Cc1nc(C(=O)O)sc1C1(C)CC(c2cccc([N+](=O)[O-])c2)=NO1 (stereo unspecified) | i | 9 | -1 | -13 | nt | -3 | nt | 38
O=C(Nc1ccc(S(=O)(=O)NCc2ccco2)cc1)c1cccc(F)c1 | i | 5 | -3 | 6 | 25 | 0 | 18 | 1
COc1ccc(-c2cc(C(=O)NN)n(-c3ccccc3)n2)cc1 | i | -1 | 4 | 2 | 1 | nt | -2 | ?
COCCN(CCOC)Cc1cc(=O)oc2ccccc12 | nt | 4 | 7 | nt | nt | -10 | nt | -5
CCN(CC(=O)Nc1cc(Cl)ccc1C)C(=O)CSCc1c(C)noc1C | i | -2 | -5 | -5 | nt | -12 | nt | -13
CCOc1ccc(NC(=O)CNS(=O)(=O)c2c(C)cc(C)cc2C)cc1 | i | -2 | -1 | 0 | -6 | -8 | -1 | 1
COc1ccc(CCC(=O)Nc2ccc3c(c2)OCCO3)cc1 | i | 1 | -6 | -13 | 5 | -12 | -2 | -18
CC(=O)Nc1cccc2c1C(=O)N(c1cccc(OC(C)=O)c1)C2=O | i | -4 | -2 | nt | -7 | nt | 0 | 15
CCOC(=O)c1c(NC(=O)CC)sc(C(=O)N2CCCCC2)c1C | i | -1 | 0 | -9 | 3 | -9 | 14 | nt
CCn1c(Cn2nnc(-c3ccccc3)n2)nnc1SCC(=O)N1CCOCC1 | i | 0 | 1 | 7 | -12 | -3 | -6 | 2
CCN(CC)S(=O)(=O)c1ccc2c(c1)N(CC(=O)N1CCCC1)C(=O)CO2 | i | 5 | -7 | -3 | 5 | -9 | 1 | 5
C#CCOCCOCCOCCNc1nc(N2CCOCC2)nc(N2CCN(C(=O)CCCCCCCCCCNC(=O)[C@@H]([C@H](C)CC)n3cc(CCCCCN)nn3)CC2)n1 | nt | 0 | -1 | 48 | nt | 8 | nt | 21
COC(=O)c1ccc(CN2[C@H](C(=O)OC)C[C@@]3(O)[C@H](O)[C@H](O)[C@H](O)C[C@@H]23)cc1 | i | 0 | 2 | -9 | 3 | 0 | 2 | -43
COCCN1Cc2cccc(C(=O)Nc3cccnc3)c2C1=O | nt | 2 | -2 | 14 | -5 | -11 | -4 | -50
CCOC(=O)N1CCN(C(=O)/C(=C/c2ccc(F)cc2)NC(=O)c2ccccc2)CC1 | i | -2 | 3 | -6 | 14 | 11 | 2 | -5
Cc1ccc(S(=O)(=O)N2CCCCC2)cc1NC(=O)CSCC(=O)O | i | -3 | 3 | -9 | 1 | nt | -6 | -16
O=C(O)c1cc(-c2ccccc2Cl)n(-c2cccc(Cl)c2)n1 | i | 4 | -3 | nt | 13 | -9 | 2 | -8
O=C(NCC1CCCN(Cc2cccc(F)c2)C1)c1cccc2ccccc12 (stereo unspecified) | i | -2 | -1 | 8 | 7 | -10 | -3 | 18
COc1ccc(N2CCN(C3=CC(=O)N(c4cccc(Cl)c4)C3=O)CC2)cc1 | i | 1 | 3 | -11 | -4 | nt | 23 | 5
N#CC1(NC(=O)COC(=O)c2cc([N+](=O)[O-])ccc2N2CCCC2)CCCCC1 | i | -1 | -1 | -6 | nt | -10 | nt | -5
CC(C)CNS(=O)(=O)c1ccc(S(=O)(=O)NC2CCOC(C)(C)C2)cc1 (stereo unspecified) | i | -2 | -2 | -9 | nt | -12 | nt | nt
Cc1cc(-c2ccccc2C(=O)O)on1 | i | 3 | 3 | 5 | 5 | -6 | -3 | -12
CCC1Oc2ccc(C)cc2N(Cc2cccc(C)c2)C1=O (stereo unspecified) | i | 0 | 1 | -6 | -3 | -17 | 9 | nt
CCOC(=O)CNc1nc(Cl)nc(N2CCCCC2)n1 | i | 2 | -2 | -5 | -18 | -6 | -9 | -7
NC(=O)CCN(C(=O)c1cccc(S(=O)(=O)N2CCc3ccccc32)c1)c1ccccc1 | nt | -1 | -4 | -14 | nt | 12 | nt | nt
Fc1ccc(NCc2nnc(SCc3ccccc3)o2)cc1 | i | 3 | 1 | nt | 2 | -13 | -4 | -6
Cc1nn(-c2ccccc2)c2c1C(c1c(C)[nH]c(C#N)c1C)C(C#N)=C(N)O2 (stereo unspecified) | i | -1 | -1 | 3 | 8 | 2 | 12 | nt
CN(C)CCN=c1cc(-c2ccccc2)oc2ccc(Cl)cc12 | nt | 2 | -1 | nt | 2 | nt | -8 | -79
CC(=O)N1c2ccc(S(=O)(=O)NCCC(=O)N(C)C3CCCCC3)cc2CC1C (stereo unspecified) | i | 3 | -4 | -16 | 4 | -4 | -6 | 7
COc1cc(C)c(S(=O)(=O)NOCc2ccccc2)c(C)c1C | i | 1 | -6 | 31 | 2 | -12 | -2 | 13
CC1CCCCC1NC(=O)Cn1nnc(-c2ccc(Cl)cc2)n1 (stereo unspecified) | nt | nt | nt | -12 | -4 | nt | 4 | nt
CCOC(=O)CC(NC(=O)Cn1nnc(-c2ccccc2F)n1)c1ccc(OC)cc1 (stereo unspecified) | i | 0 | -1 | 1 | -3 | nt | 3 | -52
CCOC(=O)NC(=O)/C(C#N)=C/c1ccc(N(C)C)cc1 | i | 1 | 3 | -10 | 44* | 14 | 77 | 4 | eIF4H FP inh retest=2;PABP polyA inh retest=87*
CC(C)N(c1ccccc1)c1ccc(NC(=O)[C@@H]2O[C@H](CO)[C@@H](O)[C@H]2O)cc1 | nt | 2 | 0 | nt | nt | -15 | nt | -4
O=C(CN1CCN(c2ccc(Cl)cc2[N+](=O)[O-])CC1)N1CCOCC1 | nt | 3 | 1 | -12 | -4 | nt | 7 | 23
O=C(O)c1cc([N+](=O)[O-])cc([N+](=O)[O-])c1N1CCN(c2cccc(C(F)(F)F)c2)CC1 | i | 5 | 3 | 3 | -8 | -16 | 0 | 3
COc1cc2c(=O)n(CCC(=O)NCC3CCCO3)c(=O)n(CC(=O)Nc3ccc(C)c(C)c3)c2cc1OC (stereo unspecified) | nt | -4 | -8 | 3 | -6 | -1 | -9 | 10
CCOc1ccc(/C=C/C(=O)c2cc(Br)ccc(=O)c2O)cc1 | nt | -5 | -4 | 46 | 6 | nt | 77 | 64* | eIF4H FP inh retest=-6;PABP polyA inh retest=-2
O=C(COC(=O)c1ccccc1SCC(=O)N1CCCC1)Nc1ccccc1 | i | -1 | 3 | 12 | 10 | -20 | 1 | -6
O=C(O)C(c1ccccc1)N1C(=O)c2ccccc2C1=O (stereo unspecified) | i | 5 | 3 | 36 | -3 | -5 | -4 | 7

Brought forward from above: two compounds; new compounds follow.
SMILES | Rce1 inh | MT1-MMP act inh | MT1-MMP act inh RFP | CSC inhib | PABP polyA inh | UUG fidelity | eIF4H FP inh | Env fusion inh | others
O=C(COC(=O)c1ccccc1SCC(=O)N1CCCC1)Nc1ccccc1 | i | -1 | 3 | 12 | 10 | -20 | 1 | -6
O=C(O)C(c1ccccc1)N1C(=O)c2ccccc2C1=O (stereo unspecified) | i | 5 | 3 | 36 | -3 | -5 | -4 | 7
CN(CC(=O)Nc1ccccc1Cl)C(=O)COc1cccc2c1OC(C)(C)C2 | i | 1 | 2 | -12 | nt | nt | nt | 3
CC(=O)c1sc(NC(=O)CSC(C)C(=O)Nc2cc(C)on2)nc1-c1ccccc1 (stereo unspecified) | i | 0 | 0 | -14 | nt | -15 | nt | -2
Cc1ccc(C(=O)N(C)Cc2ccccc2)cc1S(=O)(=O)N1CCOCC1 | i | 2 | 6 | -6 | 7 | 13 | -12 | -3
CC(NC(=O)C1CCCN1S(=O)(=O)c1ccccc1)c1ccccc1 (stereo unspecified) | i | -4 | -2 | -11 | 0 | -18 | -1 | -7
CC(C)Cc1cc(C(=O)NCc2cccnc2)no1 | i | 1 | 2 | -25 | 0 | -23 | 1 | -20
O=C(CC1COc2ccccc2O1)NC1CCCCC1 (stereo unspecified) | i | 1 | -1 | -8 | -4 | -26 | -1 | nt
COc1ccc(Nc2ccc(C(F)(F)F)cc2[N+](=O)[O-])cn1 | i | 3 | 4 | 6 | 3 | -6 | -8 | 59*
COc1ccc(-c2onc(C)c2-c2ccc3c(c2)OCCO3)c(O)c1 | i | nt | nt | 20 | 17 | -23 | -9 | -1
O=C(O)/C=C/C(=O)NNC(=O)c1ccc(Br)cc1 | i | 4 | 3 | nt | -6 | -23 | -10 | -20
COC(=O)c1sc(N/N=C/c2ccc(C(C)C)cc2)nc1C | i | -1 | -5 | 26 | 5 | -14 | 14 | -20
CC(C)C(=O)Nc1ccc(NC(=O)c2cc3ccccc3o2)cc1 | i | 14 | 3 | 11 | 14 | -13 | -6 | -64
COc1ccc(N2C(=O)[C@@H]3[C@H](C2=O)[C@H](C(C)=O)N2c4ccccc4C=C[C@@H]32)cc1 | i | -43 | 0 | -12 | 22 | -18 | 49 | -51
COc1ccc(S(=O)(=O)NCCSC(C)(C)C)c(Cl)c1Cl | i | 20 | -5 | -5 | -9 | -4 | -10 | -20
CC(=O)Nc1ccc(S(=O)(=O)N2CCSC2c2ccccc2)cc1 (stereo unspecified) | i | 4 | 0 | 17 | 7 | -1 | -8 | nt
CCc1ccc(S(=O)(=O)NCCc2csc(C)n2)s1 | i | 0 | 0 | -3 | 8 | nt | 2 | -10

Looked up one by one from the entries so far (six):
SMILES | Rce1 inh | MT1-MMP act inh | MT1-MMP act inh RFP | CSC inhib | PABP polyA inh | UUG fidelity | eIF4H FP inh | Env fusion inh | others
CC(C)C(=O)Nc1ccc(NC(=O)c2cc3ccccc3o2)cc1 | i | 14 | 3 | 11 | 14 | -13 | -6 | -64
CC(=O)Nc1ccc(S(=O)(=O)N2CCSC2c2ccccc2)cc1 (stereo unspecified) | i | 4 | 0 | 17 | 7 | -1 | -8 | nt
CC(=O)c1sc(NC(=O)CSC(C)C(=O)Nc2cc(C)on2)nc1-c1ccccc1 (stereo unspecified) | i | 0 | 0 | -14 | nt | -15 | nt | -2
CC(NC(=O)C1CCCN1S(=O)(=O)c1ccccc1)c1ccccc1 (stereo unspecified) | i | -4 | -2 | -11 | 0 | -18 | -1 | -7
COC(=O)c1sc(N/N=C/c2ccc(C(C)C)cc2)nc1C | i | -1 | -5 | 26 | 5 | -14 | 14 | -20
CC(C)Cc1cc(C(=O)NCc2cccnc2)no1 | i | 1 | 2 | -25 | 0 | -23 | 1 | -20
